# Mtb hypoxia inh: PubChem AID 1159583; M. tuberculosis hypoxia-regulated fluorescent reporter, fluorescence; fluorescence inhibition, % (concentration not given with the values); actives 0.1% (n = 300,000);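 active = 35 to 45% if threefold the growth effect, above 45% if 1.5-fold the growth effect; inactive = the rest, general growth blockers included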;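 note: wells of about 50 µL received 100 nL stock; 0% = vehicle wells and 100% = reference inhibitor wells; whole bacteria with a GFP reporter of the hypoxia response; strong numbers were not always called active; many hits fall short of the cut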
# RN4220 kill: growth inhibition of S. aureus RN4220, primary screen, OD600 | 16 h | inhibition, % (concentration not given with the values) | actives 0.33% (n = 330,000) | AID 1259311, 2017;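 active = z-score of -3 or lower and OD600 up to 0.18 on both plates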;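 note: plate controls were untreated cells for no effect and reference antibiotic for full effect; stock transfer was 100 nL into about 80 µL; one replicate is shown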
# PrP UTR inh: inhibition of PrP 5' UTR reporter expression. cell-based PrP 5' UTR mRNA reporter, plate reader. inhibition, % (concentration not given with the values). actives 0.35% (n = 340,000);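 active = every replicate at 50% or more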;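 note: 0 = median of the neutral control wells; tested in H4 reporter cells; numbers are from one replicate; inactives centre near -14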
# Sa ugtP lethal: growth inhibition of ugtP-null S. aureus, primary screen, RN4220 ugtP deletion, OD600 | 16 h; some inactives read as strong as hits | growth inhibition, % (no concentration beside the values) | actives 0.54% (n = 330,000);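 active = z-score under -3 and OD600 up to 0.15 on both plates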;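 note: plate controls were untreated wells for no effect and antibiotic for full effect; wells of about 80 µL received 100 nL stock; the first replicate is given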
# Autofluor counter: counter-screen for toxin protease inhibitors: compound fluorescence. compound autofluorescence counterscreen, microsphere flow cytometry; active compounds read high. fluorescence intensity (test concentration not listed). actives 3.1% (n = 360,000);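 active = at least 3 SD above the mean of all compounds, about 16000 in these data; inconclusive = too few beads counted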;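 note: 100 nL of 1 mM stock went into each well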
# BJeLR lethal: MLPCN primary cell-based screen for lethality selective to Ras in HRASV12 cells. BJeLR (HRASV12) viability, CellTiter-Glo ATP luminescence, 48 h; reference of the scale not given here. inhibition, % (no concentration beside the values). actives 0.17% (n = 300,000);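 active = replicate mean above 50%; inconclusive = above 50% but judged a plate artefact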;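 note: 50 nL library stock added to about 25 µL; numbers are from one replicate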
# Mtb hypoxia inh growth: recorded beside Mtb hypoxia inh, whose call it bears; growth inhibition, %; measured here: M. tuberculosis growth (absorbance);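 0% = vehicle and 100% = reference antibiotic; read after six days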
# An asterisk follows results filed as active; ? = inconclusive; . = no result given.
No. | SMILES | Mtb hypoxia inh | Mtb hypoxia inh growth | RN4220 kill | PrP UTR inh | Sa ugtP lethal | Autofluor counter | BJeLR lethal
1 | Cc1cccnc1NC(=O)Cn1nc(-c2ccccc2)oc1=S | 9.5 | 7.9 | 15.2 | -66.3 | -3.3 | 7223 | 16.5
2 | CCCCn1c(N)c(N(CCOC)C(=O)c2ccc(N3C(=O)c4ccccc4C3=O)cc2)c(=O)[nH]c1=O | 7.0 | 2.4 | 3.9 | -11.6 | 10.5 | 4517 | .
3 | CN(C)CCC(=O)C(Cc1ccccc1)c1ccccc1 (stereo unspecified) | 7.6 | 9.2 | 17.1 | -10.1 | 26.6 | ? | 3.0
4 | C/C(CC(=O)NCc1ccco1)=N\NC(=O)COc1ccc(C)cc1 | . | . | . | -30.9 | . | 9428 | -3.3
5 | CCOC(=O)C1C(CC)NC(=S)NC1(C)O (stereo unspecified) | 0.0 | 0.2 | 8.0 | -15.1 | 4.3 | 4555 | 2.1
6 | Cc1ccc(OC(=O)CCC(=O)Oc2ccc(C)cc2C)c(C)c1 | 8.3 | 8.0 | 3.1 | -0.8 | 15.6 | 3664 | .
7 | CCCCn1c(=O)c(C(=O)Nc2nnc(C(C)C)s2)c(O)c2ccccc21 | 2.1 | 14.7 | 33.3 | . | 81.6 | . | -0.7
8 | C=CCn1c(CSCc2ccccc2)nnc1SCC(=O)NCc1ccccc1 | 7.8 | 4.6 | 4.8 | -13.3 | 8.7 | 3245 | 4.8
9 | N=c1c(S(=O)(=O)c2ccccc2)cc2c(=O)n3ccccc3nc2n1Cc1ccco1 | . | . | 2.7 | 2.3 | -8.5 | 4061 | 1.3
10 | COc1ccc(C(=O)N/N=C/c2cc3ccccc3[nH]c2=O)cc1 | . | . | . | -6.9 | . | 4410 | 0.2
11 | Cc1cc(NC(=O)CC2Oc3ccccc3NC2=O)ccc1Br (stereo unspecified) | 17.3 | 8.0 | 4.7 | -17.5 | 8.3 | 3340 | -1.8
12 | CC(C)c1nnc(SCC(=O)NCc2ccco2)n1C | . | . | 2.4 | -7.7 | -1.2 | 3242 | -3.3
13 | CCOc1ccc(OCC)c(NC(=O)C2CCCN(S(=O)(=O)c3c(C)noc3C)C2)c1 (stereo unspecified) | 11.5 | 1.7 | 0.7 | -4.2 | 0.2 | 3440 | 4.8
14 | COCCCNC(=O)C1CCCN(S(C)(=O)=O)C1 (stereo unspecified) | 6.0 | 3.8 | 3.8 | -13.1 | -4.8 | 2113 | 4.9
15 | O=C(Cc1ccccc1)NC(=S)Nc1ccc(OC(F)F)cc1 | 4.7 | 13.4 | 2.1 | -18.0 | 60.0 | 3938 | -1.8
16 | CCOC(=O)C1(Cc2ccc(OC)cc2)CCN(C(=O)c2csc(C)n2)CC1 | 3.3 | 0.8 | 11.0 | -27.5 | 6.3 | 4702 | 5.7
17 | O=C(O)COc1ccccc1/C=C1\SC(=Nc2ccc(F)cc2)N(c2ccc(F)cc2)C1=O | 3.1 | 9.4 | -0.4 | -24.0 | 8.3 | 4231 | 3.8
18 | CCc1cc(SC#N)cc(C)c1N | 6.8 | 6.4 | 6.0 | -12.8 | 3.4 | 4901 | 2.0
19 | O=C(O)c1cccc(S(=O)(=O)N2CC=C(c3ccccc3)CC2)c1 | 1.5 | 4.8 | 2.4 | 4.9 | 3.8 | 6435 | .
20 | COCCNC(=O)CSc1ncnc2sccc12 | 16.2 | 12.4 | 7.7 | -27.2 | -6.4 | 8257 | -3.3
21 | CCN(CC(=O)Nc1ccc(Cl)c(S(=O)(=O)N(C)C)c1)CC(=O)NC(C)C | -0.3 | 1.1 | 1.8 | -4.6 | 0.6 | 4944 | -1.3
22 | Cc1ccc(C)c(NC(=O)CN(C)C(=O)C2=NNC(=O)CC2)c1 | -3.7 | 1.4 | 3.3 | -9.2 | 1.9 | 8647 | .
23 | CCN(CC(=O)Nc1ccccc1OC)C(=O)c1cc(S(=O)(=O)N2CCCCCC2)ccc1OC | 6.2 | -1.0 | 4.0 | -2.8 | 5.5 | 5499 | 14.2
24 | CCOC(=O)c1sc(N/N=C/c2ccc(N(C)C)cc2)nc1C | . | . | . | -0.6 | . | 3085 | -3.2
25 | O=[N+]([O-])c1ccc(N/N=C2/CCCCC2c2ccccn2)c([N+](=O)[O-])c1 (stereo unspecified) | . | . | . | -22.7 | . | 2473 | -1.7
26 | CCN(c1ccccc1)S(=O)(=O)c1cccc(C(=O)NCc2ccccn2)c1 | 8.8 | 9.3 | 8.7 | -19.3 | 5.8 | 6047 | -4.5
27 | Cc1c(C(=O)NC(C)c2ccccc2)c(-c2ccccc2)nn1-c1ccccc1 (stereo unspecified) | . | . | -4.7 | -20.3 | 3.7 | 4768 | .
28 | CCOc1ccccc1C(=O)NCC(=O)NC(C)c1ccc(-n2ccnc2)cc1 (stereo unspecified) | 10.4 | -4.4 | 3.7 | -6.4 | 4.9 | 6772 | 11.1
29 | Cc1ccc(C)c(S(=O)(=O)N2CCCOC2CNC(=O)C(=O)NCCc2ccco2)c1 (stereo unspecified) | 4.2 | -2.6 | 4.5 | -15.7 | -1.1 | 7235 | 0.6
30 | O=S(=O)(Nc1cccc(-c2nnco2)c1)c1ccc(Cl)cc1 | 6.6 | 11.1 | 7.8 | -11.3 | 14.3 | 3246 | -1.1
31 | CCCN(Cc1cc2cccc(C)c2[nH]c1=O)C(=O)c1cccc(OC)c1 | 10.3 | 3.1 | 0.5 | -16.5 | 0.7 | 2599 | -8.4
32 | CCN(CC)c1ccc(N=Cc2c(O)[nH]c(=O)[nH]c2=O)cc1 | 6.3 | 2.5 | 2.1 | -20.7 | 1.4 | 3050 | 3.3
33 | COc1cccc(-c2nnc(SCCOc3ccc4c(C)cc(=O)oc4c3)o2)c1 | 2.8 | 0.9 | 7.2 | -8.7 | 10.4 | ? | -2.3
34 | CS(=O)(=O)N1CCN(C(=O)NC23CC4CC(CC(C4)C2)C3)CC1 | 3.0 | 15.6 | 2.3 | -11.8 | -3.2 | 6096 | 3.2
35 | CN(CC(=O)NCCc1ccc(S(N)(=O)=O)cc1)CC(=O)Nc1ccc(Cl)cc1 | 4.8 | 2.9 | 3.3 | -15.1 | -4.3 | 3945 | .
36 | Cc1ccc(-c2cc(-c3ccccc3)cc(-c3ccccc3)[n+]2-c2ccccc2)cc1 | . | . | 93.7* | -56.0 | 97.8* | 3853 | 74.8*
37 | CCOc1ccc2nc(Cl)c(CN(C(C)=O)C3CCCCC3)cc2c1 | 11.4 | -1.0 | 4.3 | -9.1 | 4.0 | 2930 | -5.2
38 | Cc1ccc(Cn2nnc3c(=O)[nH]c(C4CCN(S(=O)(=O)c5ccc(S(=O)(=O)NC6CC6)cc5)CC4)nc32)cc1 | -17.3 | 11.6 | -1.1 | -13.3 | 28.5 | 5698 | 4.2
